NPYLR7 ag: agonists of mosquito NPYLR7 receptor, primary screen, cell-based, Aedes aegypti, calcium fluorescence, mosquito biting behavior; HEK293T NPYLR7/Galpha15, GCaMP6s calcium fluorescence; Aedes aegypti neuropeptide Y-like receptor 7 (NPYLR7); activation, % at 10 µM; hit rate 0.15% among 270,000; in the data active = activation above about 40%;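 note: 0% = vehicle and 100% = reference agonist at the receptor; some compounds past the cut are filed as inactive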
NPYLR7 ag max-min: further read-out of NPYLR7 ag, marked with its call; activation, %; measured here: Max-Min RFU normalised activation; some inactives read as strong as hits;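 span of the calcium signal over five minutes; 0% = vehicle and 100% = native peptide agonist; compound fluorescence can raise it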
Active calls of the source: *; & = joins results of further samples. These rows are one share of the data. The share of hits here may be higher or lower than overall.

SMILES | NPYLR7 ag | NPYLR7 ag max-min
COc1cccc2c1N(CCn1c(=O)oc3ccccc31)CCC2 | 6 | 1
COc1ccc(-c2nc3ccc(C)cn3c2NC(=O)C2CCC2)cc1 | -5 | -4
CCc1ccc(S(=O)(=O)Nc2cc(Sc3ncn[nH]3)c(O)c3ccccc23)cc1 | -3 | -4
Cc1ccccc1CNC(=O)c1cc(N(C)C2CCCCC2)nc2ccccc12 | 6 | 2
Cc1csc(=O)n1CCC(=O)OC(c1cccc(C(F)(F)F)c1)C(F)(F)F (stereo not given) | -4 | -5
CC(=O)c1cc(C(=O)OC(C(=O)Nc2cccc(C(F)(F)F)c2)c2ccccc2)n(C)c1 (stereo not given) | 1 | 13
COc1cccc(NC(=O)c2ccc3nc(C)c(N(C)Cc4ccc(NC(C)=O)cc4)n3c2)c1 | 7 | -7
C[C@@H]1C[C@H]2[C@@H]3CCC4=CC(=O)C=C[C@]4(C)[C@@]3(F)[C@@H](O)C[C@]2(C)[C@@]1(O)C(=O)CO | 17 | 2
CN(Cc1noc(C2CC2)n1)C1CCN(Cc2ccn(C)c(=O)c2)C1 (stereo not given) | 11 | 9
CCS(=O)(=O)Oc1cc(CN(CCOC)C(=O)COC)ccc1OC | -2 | 1
COCCn1c(SCc2cccc(F)c2)nc2c([nH]c3ccccc32)c1=O | 4 | 4
Oc1ccc(Cl)cc1C1=NCCN=C(C(F)(F)F)C1 | 9 | 6
CCOc1cnn(-c2ccc(Cl)cc2)c(=O)c1Nc1cccc(C(=O)NCCc2ccccn2)c1 | -1 | -1
Cc1cc([N+](=O)[O-])nn1C(=O)c1nn(C)cc1Br | -2 | -3
O=S(=O)(NC(CN1CCOCC1)c1ccccc1)c1cc(Cl)cc(Cl)c1 (stereo not given) | 4&-4 | 1&-6
Cc1nn(CC(=O)N(C)C)c(C)c1S(=O)(=O)N1CCOCC1 | 4 | 5
CCOC(=O)c1nn(-c2ccc(C)cc2)c(=O)cc1OCC(=O)Nc1ccc(C)cc1C | 8 | 4
Cc1ccc(NC(=O)CC(C)(C)C)cc1S(=O)(=O)Nc1ccccc1F | -3 | -6
O=C(CSc1nnc2ccc(-c3ccccc3)nn12)Nc1ccc([N+](=O)[O-])cc1 | -10 | -1
Cc1ccc(NC(C)C(=O)N2CCN(Cc3ccccc3)CC2)cc1 (stereo not given) | 0 | 0
Cc1cc(C)cc(C(O)c2ncc(-c3ccccc3F)[nH]2)c1 (stereo not given) | 4 | 2
Cc1cc(C)nc(SCc2c(C(=O)NC3CCCC3)nnn2-c2ccccc2)n1 | -4 | -7
COc1ccc2oc(=Nc3ccccc3)c(-c3nc4ccccc4[nH]3)cc2c1 | 12 | -2
COC1CCCN(Cc2c(C(=O)N3CCN(C4CCCCC4)CC3)nc3ccccn23)C1 (stereo not given) | 7 | 11
COc1ccccc1Oc1ncccc1CNC(=O)Nc1c(C)noc1C | -3 | -4

Compound profiles, as listed above. Order of screens: NPYLR7 ag | NPYLR7 ag max-min
`CN(Cc1noc(C2CC2)n1)C1CCN(Cc2ccn(C)c(=O)c2)C1` (stereo not given) across the screens: 11 | 9
`Cc1cc([N+](=O)[O-])nn1C(=O)c1nn(C)cc1Br` across the screens: -2 | -3
`Cc1csc(=O)n1CCC(=O)OC(c1cccc(C(F)(F)F)c1)C(F)(F)F` (stereo not given) across the screens: -4 | -5
`Cc1ccc(NC(C)C(=O)N2CCN(Cc3ccccc3)CC2)cc1` (stereo not given) across the screens: 0 | 0
`COc1ccc(-c2nc3ccc(C)cn3c2NC(=O)C2CCC2)cc1` across the screens: -5 | -4

An excerpt from above in order of molecular weight, descending:
SMILES | NPYLR7 ag | NPYLR7 ag max-min
Cc1csc(=O)n1CCC(=O)OC(c1cccc(C(F)(F)F)c1)C(F)(F)F (stereo not given) | -4 | -5
CN(Cc1noc(C2CC2)n1)C1CCN(Cc2ccn(C)c(=O)c2)C1 (stereo not given) | 11 | 9
Cc1ccc(NC(C)C(=O)N2CCN(Cc3ccccc3)CC2)cc1 (stereo not given) | 0 | 0

(further entries)
SMILES | NPYLR7 ag | NPYLR7 ag max-min
COc1ccc(CC(=O)NCCc2cc3ccc(C)c(C)c3[nH]c2=O)cc1 | 17 | 15
Cc1c(NS(=O)(=O)c2ccc(C(=O)N3CCCCC3C)cc2)c(=O)n(-c2ccccc2)n1C (stereo not given) | -6 | -10
c1ccc(-c2oc3ncnc(N4CCOCC4)c3c2-c2ccccc2)cc1 | -2 | 5
O=S(=O)(NCCNc1nc(-c2ccco2)nc2ccccc12)c1cccc(C(F)(F)F)c1 | 3 | 14
CC1c2cccn2CCN1CC(O)COC1CCCc2ccccc21 (stereo not given) | -9 | -7
O=C1OC(c2ccc(F)cc2)=N/C1=C\C(Cl)=C\c1ccccc1 | -1 | -6
COc1ccc(S(=O)(=O)NCC2CCCN(C(=O)C3=C(C)OCCO3)C2)cc1 (stereo not given) | 3&-4 | 0&-7
Cc1cc2c(cnc3ncnn32)c(=O)n1-c1ccc(Br)cc1 | 5 | 10
COc1ccc(/C=C/C(=O)N2CCC(c3ccc(F)cc3)CC2)cc1 | 0 | -6
COC(=O)c1c2c(nc3c1c(-c1ccc(F)cc1)nn3C1CCS(=O)(=O)C1)CCC2 (stereo not given) | 11 | 3
CC(=O)N(C/C=C/c1ccccc1)CCO | 1 | 4
CCn1nccc1C(=O)N=c1sc2ccccc2n1CCSC | 2 | 4
CC(C)(C)CN1CCCC2(CCN(C(=O)C3=NNC(=O)CC3)C2)C1 (stereo not given) | 3 | 6
CCOc1ccccc1N1CCN(C(=O)c2cc(-c3cccs3)nn2-c2cc(C)ccc2C)CC1 | 16 | 17
O=C(NC1CC1)C(c1ccccc1)N1CCN(S(=O)(=O)c2cccc(C(F)(F)F)c2)CC1 (stereo not given) | -3 | -5
CCn1c(SCC(=O)NC(=O)Nc2ccc(OC)cc2)n[nH]c1=O | 12 | 3
c1ccc(CN2CCC(N3CC(c4cccnc4)C3)CC2)cc1 | 8 | 6
CCOC(=O)CNC(=O)N1CCC(CCOc2ccccc2)(C(=O)OCC)CC1 | 20 | 10
CCCS(=O)(=O)Nc1ccc(N(C)C)c(CN(Cc2ccco2)C(=O)C(CC)c2ccccc2)c1 (stereo not given) | 0 | 9
Cc1[nH]c2c(c1C(=O)N1CCCC3(CCN(C)C3)C1)C(=O)CCC2 (stereo not given) | 13 | 8
CCC1CC2CCCC(NC(=O)C(C)Cl)(C1)C2 (stereo not given) | -6 | -10
CCNC(=O)C1(C)CCN(Cc2ccc(S(C)(=O)=O)cc2)C1 (stereo not given) | 1 | 1
Cc1ccc(NC2CCCN(C(=O)c3ccc(F)c(F)c3)C2)cc1C (stereo not given) | 5 | 6
Cc1cnc(SCc2ccccn2)nc1C1CCCN(C(=O)c2ccc3[nH]c(C)c(C)c3c2)C1 (stereo not given) | 12 | 3
CCn1ncc(-c2c(-c3ccccc3)ncn2CCSc2nccn2C)c1C | 17 | 4

The results go on:
SMILES | NPYLR7 ag | NPYLR7 ag max-min
CCOc1ccc(S(=O)(=O)NCC2COC3(CCCC3)O2)cc1 (stereo not given) | 8 | 4
C=CCCC(O)(CCC=C)c1ccc(CN(CCCOC)Cc2ccc(OC)cc2)o1 | 0 | 8
CN(CC(=O)NCc1ccc2[nH]c3c(c2c1)CCCC3)C1CCS(=O)(=O)C1 (stereo not given) | -1 | -1
Cc1c(C)c2c(c(C)c1O)CCC(C)(C(=O)NCCSC1Sc3ccccc3NC1=O)O2 (stereo not given) | 17 | 11
COc1cccc(CN(C(=O)c2cccc(F)c2)C2CC2)c1OCc1nc(CO)cs1 | -6 | -1
C=CCn1c(=O)c2c(nc3n(Cc4ccc(OC)cc4)c(C)cn23)n(C)c1=O | 12 | 7
c1ccc2ncc(-c3ccncn3)cc2c1 | 18 | 17
COc1ccc(-c2nn(Cc3ccc(C)cc3)c(=O)c3nc(C)sc23)cc1 | 1 | -3
CN(C)C(=O)C1CCCN1Cc1c(O)ccc2ccccc12 (stereo not given) | 1 | 2
CCc1cc(N(C)CCc2cn[nH]c2)nc(N2CCOCC2)n1 | -10 | -12
COc1cc(Cl)c(NS(=O)(=O)c2ccc3c(c2)OCCCO3)cc1OC | 11 | 13
CN=C1NS(=O)(=O)c2ccccc21 | 7&1 | 6&8
O=C(COc1coc(CN2CCN(Cc3ccccc3)CC2)cc1=O)NCc1ccco1 | 6 | 1
CO/N=C(/C(=O)NC(Cc1ccccc1)C(=O)OC)c1csc(NC=O)n1 (stereo not given) | 0 | -4
O=C1Nc2ccc(Br)cc2C1=c1sc2nc3ccccc3n2c1=O | 0 | 0
CCCN(CC(=O)Nc1c(-c2ccccc2)c(C)nn1-c1ccc(OC)cc1)C(=O)c1ccccc1F | -3 | 4
CCn1nnc2c(Nc3cccc(Br)c3)ncnc21 | 6 | 12
Cc1ccc(C)c(CSC2=NCCN2C(=O)Cc2ccc([N+](=O)[O-])cc2)c1 | 4 | -1
COc1ccc(C(=O)NC(Cc2ccccc2)c2nnc(SCc3ccc(F)cc3)n2-c2ccc(C)cc2)cc1 (stereo not given) | 2 | 2
Cc1ccc(CC2(NC(=O)Cc3c[nH]c(=O)n(C)c3=O)CC2)cc1 | -3 | -8
O=c1[nH]c(CSc2nnnn2Cc2cccs2)nc2ccsc12 | 6 | 6
CCc1nc2n(n1)C(=O)C(C(c1ccc([N+](=O)[O-])cc1)N1CCOCC1)S2 (stereo not given) | -6 | -11
CCN1CCn2c(C)nc(C(=O)N3CCOC(C(F)(F)F)C3)c2C1=O (stereo not given) | -1 | -3
COc1ccc(C)cc1-c1ccc[nH]c1=O | -4 | -6
COCCn1c(SCC(=O)c2ccccc2)nc2c1c(=O)[nH]c(=O)n2C | 18 | 5

The results go on:
SMILES | NPYLR7 ag | NPYLR7 ag max-min
O=C(C1CCCC1)N(Cc1c(-c2ccccc2)noc1N1CCCCC1)C1CC1 | 13 | 12
Cc1cc(C)n2ncc(CN3CCC(NS(C)(=O)=O)CC3)c2n1 | 11 | 9
C[C@H](C(=O)NCC1CCCCC1)N1Cc2ccc(-c3ccnn3C)nc2C1=O | 8 | 22
Cc1cc(C)cc(C(=O)NCC(=O)Nc2ncccc2C)c1 | -3 | -8
CCC(C)Cc1c(C)sc2nc(CN3CCC(C)CC3)[nH]c(=O)c12 (stereo not given) | 0 | 5
COc1cccc(OC)c1C(=O)ON=C(N)c1ccncc1 | 1 | -4
O=C(c1n[nH]c2ccccc12)N1CCCC(c2[nH]ncc2-c2ccccc2)C1 (stereo not given) | 12 | 9
N#Cc1ccc(S(=O)(=O)NCCc2ccccn2)cc1 | -5 | -3
Cc1ccc2[nH]c(CCC(=O)NCc3c(C)noc3C)nc2c1C | 2 | -4
COc1ccccc1CN1CC(OC)CN(C(=O)CC(C)(C)C)CC1=O (stereo not given) | -2 | -3
Cc1c(C(=O)N(C)Cc2ccc(O)cc2)oc2c1C(=O)CC(C)(C)C2 | -1 | -4
CN(C)CC(O)COc1ccc(NC(=O)C2CC=CCC2)cc1 (stereo not given) | 3 | -5
CC(=O)N1CCN(C(=O)C(C)N2CCC(Oc3cccnc3)C2)CC1 (stereo not given) | -3 | -4
COc1ccc(CNC(=O)Cn2nc3c(c2NC(=O)CSc2ccncc2)CSC3)cc1 | -4 | -2
O=C(Nc1cccc(N2CCS(=O)(=O)CC2)c1)c1cnn(-c2ccccc2)n1 | 3 | 0
O=C1CC(NS(=O)(=O)N2CCOCC2)CN1CCc1ccccc1 (stereo not given) | 16 | 4
CC(C)c1nnc2sc(CC3CN(C(C)C)CCO3)nn12 (stereo not given) | 1 | -2
Cc1ccc(-n2c(C)cc(C3=NN=C(N)SC3)c2C)cc1C | 10 | 6
CCCc1nc(N2CCC3(CC2)CN(C)C(=O)O3)c2cnn(C)c2n1 | 8 | 6
N#Cc1ccsc1NC(=O)CCN1CCCC1c1ccc(F)cc1 (stereo not given) | -9 | -12
CCOC(=O)c1[nH]c(COC(=O)CN2C(=O)C3CCCCC3C2=O)c(C(=O)OCC)c1C (stereo not given) | -6 | -8
CCc1nn(C)c(Cl)c1CN1CCN(C)C(C(=O)O)C1 (stereo not given) | 1 | 0
Cc1ccccc1C1c2ccsc2CCN1C(C)C(=O)N1CCCN(S(=O)(=O)c2ccc(Cl)cc2)CC1 (stereo not given) | 22 | 14
S=c1[nH]nc(-c2ccccc2Cl)n1N=Cc1ccc2c(c1)OCCO2 | -1 | -2
CCCN(CCC)C(=O)c1csc(CSc2nnc(C)n2-c2cccc(Cl)c2)n1 | -3 | 7

3 entries from above, set out differently.
> N#Cc1ccc(S(=O)(=O)NCCc2ccccn2)cc1
  NPYLR7 ag = -5 | NPYLR7 ag max-min = -3

> Cc1ccc2[nH]c(CCC(=O)NCc3c(C)noc3C)nc2c1C
  NPYLR7 ag = 2 | NPYLR7 ag max-min = -4

> COc1ccccc1CN1CC(OC)CN(C(=O)CC(C)(C)C)CC1=O (stereo not given)
  NPYLR7 ag = -2 | NPYLR7 ag max-min = -3

Next structures:
SMILES | NPYLR7 ag | NPYLR7 ag max-min
Cn1cccc1C1CCCN1C(=O)c1cccc(O)c1 (stereo not given) | 2 | 1
O=C(COc1ccc(Cl)cc1Cl)N=Nc1c(O)[nH]c2ccc(Br)cc12 | 1 | -4
O=C(CC1Sc2ccccc2NC1=O)Nc1nc2ccccc2s1 (stereo not given) | 23 | 17
CC(C)Oc1ccc(C(O)=C2C(=O)C(=O)N(CCCn3ccnc3)C2c2cccnc2)cc1 (stereo not given) | 4 | 5
CCOC1CCCN(C(=O)c2cccc(OC)c2)C1 (stereo not given) | -3 | -1
O=C(O)CCCC[C@H]1[C@H]2NC(=O)N[C@H]2CS1(=O)=O | 4 | 5
COc1ccc(CCN(C(C)=O)C2CC(=O)N(c3ccc(Br)cc3)C2=O)cc1 (stereo not given) | 2 | -1
O=C(Nc1cccs1)N1CCn2cccc2C1c1ccccc1 (stereo not given) | 12 | 6

Screening results as filed in PubChem.
